Bioassay records from PubChem.
VDR inhibitor: Inhibitors of the vitamin D receptor (VDR): qHTS | Vitamin D3 receptor (Homo sapiens), P11473 | VDR-SRC2-3 peptide fluorescence polarization, 2 h | Potency, µM, without a hit: max response, negative = inhibition, actives largely listed as inhibitors | 400,000 tested, 0.93% active; active means well fitted inhibition curve with a large enough effect; inconclusive means small, poorly fitted or top-dose-only effect, or another doubt; inactive means no such curve, though single readings can be large or run the other way; further: series mostly up to about 120 µM
Target sequence (P11473 whole entry, looked up): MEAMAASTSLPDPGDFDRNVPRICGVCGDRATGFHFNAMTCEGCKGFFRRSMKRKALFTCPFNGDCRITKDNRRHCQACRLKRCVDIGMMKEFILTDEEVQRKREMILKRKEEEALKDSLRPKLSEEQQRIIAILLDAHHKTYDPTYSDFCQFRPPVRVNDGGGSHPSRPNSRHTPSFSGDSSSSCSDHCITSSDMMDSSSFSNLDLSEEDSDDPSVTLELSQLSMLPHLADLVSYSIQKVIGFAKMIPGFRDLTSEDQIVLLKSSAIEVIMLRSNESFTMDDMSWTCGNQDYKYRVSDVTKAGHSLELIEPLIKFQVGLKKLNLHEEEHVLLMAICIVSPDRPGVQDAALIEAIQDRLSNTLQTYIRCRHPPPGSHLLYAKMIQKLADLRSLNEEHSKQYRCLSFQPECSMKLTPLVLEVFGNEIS
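Signal is fluorescence polarization, reporting how far test compounds block the interaction of VDR with the SRC2-3 coregulator peptide after a 2 h room-temperature incubation.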
* = called active by the depositor; ? = inconclusive; & = joins results of further samples. On the % scale 0 is the no-effect control and ±100 the full control effect; potency means the concentration at half of the fitted maximal effect.

SMILES | VDR inhibitor
CC(CCc1ccccc1)NC(=O)c1ccc(NC(=O)c2ccccc2)cc1 (stereo not drawn) | 5.2%
O=C(Nc1ccc(-c2nc3ccccc3[nH]2)cc1)c1ccc2c(c1)OCO2 | -0.2%
O=C(CNc1n[nH]c(=O)[nH]c1=O)N/N=C/C1CC=CCC1 (stereo not drawn) | 11.9%
CC(C)n1c(N2CCN(C(=O)c3cccs3)CC2)nc2ccccc21 | -8.3%
COc1ccc(OCc2cc(-c3ccc(Cl)cc3)no2)cc1 | -3.0%
CC(=O)NC(CCS(C)(=O)=O)C(=O)Nc1cc(C)on1 (stereo not drawn) | -27.5%
O=C(Nc1ccc(CN2CCOCC2)cc1)c1ccc(-c2cccc([N+](=O)[O-])c2)o1 | -18.9%
CCOc1ccc(C2C(C(N)=O)=C(C)Nc3nc(SCc4ccccc4)nn32)cc1 (stereo not drawn) | -9.6%
O=C(Nc1csc([N+](=O)[O-])c1)Nc1ccccc1Cl | 17.5%
N#Cc1ccccc1S(=O)c1ccccc1C(=O)Nc1ccccc1 (stereo not drawn) | 23.6%
COCCOC1CCN(C(=O)C2CCC(=O)N(CCc3ccccc3)C2)CC1 (stereo not drawn) | -11.6%
S=c1[nH]nc(-c2ccc(Cl)cc2)n1/N=C/c1ccco1 | 4.7%
COc1cc(C(=O)NCC(=O)NC(C)CCc2ccccc2)cc(OC)c1OC (stereo not drawn) | 1.8%
Cc1ccc(C(=O)/C=C/c2ccccc2[N+](=O)[O-])cc1 | ?
COc1ccc(OCCOC(=O)c2[nH]c(C)c(C(C)=O)c2C)cc1 | -4.0%
C=CCOC(=O)C1=C[C@H](c2ccc(Br)cc2)[C@@H](CCCO)[C@H](OCC)O1 | -10.8%
CC(C)NC(=S)N/N=C/c1cccnc1 | 8.5%
CC(=O)Nc1ccc(NC(=O)C2CCCN(C(=O)c3ccc(Cl)cc3)C2)cc1 (stereo not drawn) | -13.0%
Cc1cc(C)cc(NC(=O)N2CCC(NC(=O)c3ccc(F)cc3)CC2)c1 | -8.2%
CCOc1ccc(/C=N/NC(=O)c2ccccc2Cl)cc1CN1CC2CC(C1)c1cccc(=O)n1C2 (stereo not drawn) | 9.2%
CC1CCN(S(=O)(=O)c2cccc(C(=O)NCc3cccs3)c2)CC1 | 3.0%
O=C(O)c1ccccc1SCc1cn2cc(Br)ccc2n1 | -20.6%
Cc1cc(C)cc(Oc2coc3cc(OCC(=O)NC4CCCCC4)ccc3c2=O)c1 | -10.9%
O=C1c2ccccc2S(=O)(=O)N1CCOc1ccccc1 | -5.2%
CCOc1ccccc1NC(=O)CN1CCC(NC(=O)c2ccccc2)CC1 | 4.2%
Cc1cc(C(=O)CSc2ccc3c(c2)OCCO3)c(C)n1C1CC1 | -5.6%
COC(=O)c1sc(-c2ccccc2)cc1NC(=O)c1ccccc1 | -15.3%
CC(C)(C)c1ccc(S(=O)(=O)/C=C/C#N)cc1 | 6.31µM*
COc1ccc(OCC(=O)N2CCN(C(=O)Cc3ccccc3)CC2)cc1 | 4.7%
Cc1cccc(NC(=S)NN(Cc2ccccc2)c2ccccc2)c1C | 1.5%
Cc1ccc(C(=O)N2CCN(c3ccc(C(F)(F)F)cn3)CC2)cc1 | -2.3%
N#Cc1c2n(c3c(=O)n(CC(=O)c4ccc([N+](=O)[O-])cc4)cnc13)CCCCC2 | -15.1%
COc1ccc(NC(=O)NCc2ccc3c(c2)OCO3)c(OC)c1 | -0.7%
Cc1cc(NC(=O)c2ccc(F)cc2)n(C)n1 | -7.4%
COC(=O)c1sccc1NC(=S)Nc1ccc(OC)cc1 | 2.5%
NS(=O)(=O)c1ccc(CCNC(=O)c2ccc3c(c2)OCCO3)cc1 | -4.0%
O=C1Nc2ccc(I)cc2/C1=C/c1cc(Br)c(O)c(Br)c1 | 25.1µM*
O=C(Nc1ncc([N+](=O)[O-])s1)C1CCN(S(=O)(=O)c2cnc[nH]2)CC1 | 3.9%
COc1ccc(NC(=O)CCS(=O)(=O)c2ccc3c(c2)NC(=O)C(C)S3)cc1OC (stereo not drawn) | ?
CC(=O)NC(CC(=O)NNC(=O)c1cc2ccccc2cc1O)c1ccccc1 (stereo not drawn) | 14.6%
N#C/C(=C\c1ccc(O)c(O)c1)C(=O)NCc1ccccc1 | ?
COc1ccc(-c2nc3cnc(N4CCNCC4)nc3n(Cc3ccc(F)cc3)c2=O)cc1 | 5.0%
CN(C(=O)c1ccccc1)C1c2c(ccc3ccccc23)OCC1CO (stereo not drawn) | -19.9%
O=C(CCn1c(=O)c2cccn2c2ccc(F)cc21)NCc1cccc(F)c1 | -4.2%
O=C(Nc1nccs1)c1cccc(NC(=O)C2CC2)c1 | -6.2%
COc1ccc2c(c1)CCc1sc(NC(=O)c3ccc(Br)cc3)nc1-2 | 2.6%
O=C(NC(=S)N1CCc2ccccc21)C1CCC1 | -7.6%
Cc1ccccc1NC(=O)[C@H](CSCc1ccccc1)N1Cc2ccccc2C1=O | -9.5%
Cc1cc(NS(=O)(=O)c2ccc(NC(=O)C(C(C)C)N3C(=O)c4ccccc4C3=O)cc2)nc(C)n1 (stereo not drawn) | -3.9%
CCN(C(=O)c1cn(CC)c(=O)c2cc(OC)c(OC)cc12)c1ccccc1C | 9.2%
CCOc1ccc(NS(=O)(=O)c2cc(C(=O)NCCCN3CCOCC3)ccc2C)cc1 | -1.6%
CCN(CCCNC(=O)CN(C)S(=O)(=O)c1cccc2nsnc12)c1cccc(C)c1 | -20.2%
CCOc1ccc(NC(=O)Cn2c(CCC(=O)O)ccc2-c2ccc(C)cc2)cc1 | 8.7%
CC1(C)CC(NCc2ccncc2)CC(C)(C)N1 | 1.9%
CC1CCC(=O)N(CCC#N)CC1 (stereo not drawn) | -0.6%
COc1ccc(NC(C)=O)cc1NC(C)C(=O)Nc1cc(C(F)(F)F)ccc1N1CCOCC1 (stereo not drawn) | -23.3%
Cc1ccc2[nH]c(CSc3nnc(C)s3)cc(=O)c2c1 | 5.7%
OCCN1CCN(Cc2ccc3ccccc3c2)CC1 | -9.1%
Nc1nc(N)nc(-c2cccc(Cl)c2Cl)n1 | -15.9%
O=C(COC(=O)Cc1ccc(F)cc1)NC(=O)c1ccccc1 | -11.8%

Further records:
SMILES | VDR inhibitor
Nc1nonc1-n1nnc(C(=O)N/N=C/c2cccc(Cl)c2)c1CSc1ccc(Cl)cc1 | 3.6%
O=C(c1ccco1)N1CCN(c2nc(C3CC3)nc3c2nnn3Cc2ccccc2Cl)CC1 | -15.0%
COCCCN(C(=O)c1cc(Cl)nc2ccccc12)c1c(N)n(Cc2ccccc2)c(=O)[nH]c1=O | -17.9%
CCNc1ccc(C(=O)OCC)cc1NC(=O)c1cc(S(=O)(=O)N2CCOCC2)ccc1C | 0.0%
COc1ccc(C(=O)N=c2sc3ccccc3n2C)cc1OC | 4.3%
COc1ccc(NC(=O)CN(C)S(=O)(=O)c2cnc[nH]2)cc1OC | -2.2%
CCN(C[C@H]1N[C@@](Cc2ccccc2)(C(=O)OC)[C@H]2C(=O)N(C)C(=O)[C@@H]12)S(=O)(=O)c1ccc(OC(F)(F)F)cc1 | 7.4%
Cc1noc(C)c1S(=O)(=O)N1CCC(C(=O)c2ccccc2)CC1 | -17.0%
COc1nc(N2CCOCC2)nc(C)c1[N+](=O)[O-] | -26.9%
CCC(C)[C@H]1CN=C(N)N1CCCc1cc(OC)c(OC)c(OC)c1 (stereo partly drawn) | -1.3%
O=C(COc1ccc2ccccc2c1)Nc1ccc(Br)cc1C(=O)O | -9.0%
C/C(N)=C(/C#N)C(=O)CSc1nnc(-c2ccc(OC(F)F)cc2)o1 | 7.2%&-4.1%
COc1ccc(C(=O)N[C@H](C(=O)NCCCSc2ccccc2)C(C)C)cc1 | -8.9%
COc1ccc(NC2CC(=O)N(c3cc([N+](=O)[O-])ccc3C)C2=O)cc1 (stereo not drawn) | -4.3%
COCCn1cnc2c1c(=O)n(CC(=O)O)c(=O)n2Cc1ccccc1 | -7.7%

Another view of 3 compounds above.
canonical_smiles	VDR inhibitor
CC1(C)CC(NCc2ccncc2)CC(C)(C)N1	1.9%
COCCCN(C(=O)c1cc(Cl)nc2ccccc12)c1c(N)n(Cc2ccccc2)c(=O)[nH]c1=O	-17.9%
Cc1cc(NS(=O)(=O)c2ccc(NC(=O)C(C(C)C)N3C(=O)c4ccccc4C3=O)cc2)nc(C)n1 (stereo not drawn)	-3.9%

The listing picks up; the seven compounds before the break are reprinted first.
SMILES | VDR inhibitor
COc1nc(N2CCOCC2)nc(C)c1[N+](=O)[O-] | -26.9%
CCC(C)[C@H]1CN=C(N)N1CCCc1cc(OC)c(OC)c(OC)c1 (stereo partly drawn) | -1.3%
O=C(COc1ccc2ccccc2c1)Nc1ccc(Br)cc1C(=O)O | -9.0%
C/C(N)=C(/C#N)C(=O)CSc1nnc(-c2ccc(OC(F)F)cc2)o1 | 7.2%&-4.1%
COc1ccc(C(=O)N[C@H](C(=O)NCCCSc2ccccc2)C(C)C)cc1 | -8.9%
COc1ccc(NC2CC(=O)N(c3cc([N+](=O)[O-])ccc3C)C2=O)cc1 (stereo not drawn) | -4.3%
COCCn1cnc2c1c(=O)n(CC(=O)O)c(=O)n2Cc1ccccc1 | -7.7%
CCCCOc1ccc(C(=O)NCc2ccccn2)cc1 | -1.8%
CC(=O)OC1CC2(C)C(=O)CCC2C2CCc3cc(O)ccc3C12 (stereo not drawn) | -26.9%
C=CC[C@@H](CC(=O)N[C@@H](CO)Cc1ccccc1)C(=O)N[C@H](C)COC(=O)[C@@H](CC=C)Cc1ccc(F)cc1 | -1.6%
Cn1c(-c2ccc(Br)cc2)cnc1NCc1ccc(C#N)cc1 | -9.6%
COc1ccc(/C=C/C2=C[C@]3(C)C[C@]2(C)[C@H](c2ccc(OC)cc2)CC3=O)cc1 | -5.2%
Cc1cc(C)c(C#N)c(SCCS(=O)(=O)c2ccc(Cl)cc2)n1 | 17.5%
Cc1ccc(C(=O)Nc2cc3nn(-c4ccccc4)nc3cc2Cl)c(C)c1 | -9.5%
N#Cc1ccc(-c2cccs2)nc1SCc1c(F)cccc1Cl | -2.1%
Cc1ccccc1C(=O)Nc1ccnn1C1CCN(C(=O)c2cnsn2)CC1 | 2.3%
COc1cccc(C2C(C(=O)Nc3ccc(C)cc3C)=C(C)Nc3c(C(=O)Nc4ccccc4)cnn32)c1 (stereo not drawn) | 4.4%
CC(C)(C)OC(=O)NCCCC[C@H](NC(=O)[C@H](Cc1c[nH]c2ccccc12)NC(=O)OCc1ccccc1)C(=O)O | -10.5%
CCn1c(SCC(=O)Nc2nc(-c3ccc(C)cc3)cs2)nnc1-c1ccccc1 | 9.6%
COC(=O)C1=C(C)N(C)C(C)=C(C(=O)OC)C1c1ccsc1 | 5.3%
COc1ccc(Cn2c(CO)cnc2SCc2ccc(F)cc2)cc1 | 9.0%
CC(C(Sc1ccccc1N)c1ccccc1)[N+](=O)[O-] (stereo not drawn) | 17.8µM*
COc1ccc(NC(=O)c2ccc(CN3CCN(c4ccccc4)CC3)cc2)cc1OC | 19.5%
Cc1cc(C)cc(-n2c(SCC(=O)N3CCCCCC3)nc3c([nH]c4ccccc43)c2=O)c1 | 15.7%
CCN(CC)CCCNC(=O)c1cn(CCOC)c(=O)c2c1c1ccccc1n2C | -2.8%
O=C(O)CCn1c(=O)oc2cc(S(=O)(=O)N3CCCC3)ccc21 | -9.6%
O=C(CCNC(=O)C1CCN(S(=O)(=O)c2ccc(F)cc2)CC1)NCc1ccc(Cl)cc1 | 5.9%
Cc1cccnc1NC(=O)c1ccccc1-c1ccccc1C(=O)Nc1ncccc1C | -14.2%
COc1ccc(OC)c(C2CC(=O)N3CN(c4ccccc4)CSC3=C2C#N)c1 (stereo not drawn) | 20µM*
CCOC(=O)C1=C(C)Nc2sc(C(=O)c3ccc(C)cc3)c(N)c2C1c1ccc(C(=O)OC)cc1 (stereo not drawn) | -25.9%
O=C(COC(=O)c1ccccc1Br)NC(=O)NCc1ccccc1 | 14.0%
N=c1n(CCc2ccccc2)c2ccccc2n1Cc1ccccc1F | -13.2%
CC(=O)N(C(C)=O)c1c(N2CCOCC2)c2ccccc2oc1=O | -0.9%
CCCN(C(=O)Cn1ncc2c1-c1ccccc1OC2)c1cccc(C)c1 | -3.5%
CCc1ccc(NC(=O)CCCNC(=O)Cn2cnc3sc(C)c(C)c3c2=O)cc1 | 0.1%
CCOc1ccc(C2CC(c3cccc(C)c3)n3nc(N)nc3N2)cc1 (stereo not drawn) | -1.7%
CN(C)c1ccc(C=c2c3cc(O)ccc3n3c2cc(-c2ccccc2)[n+]3C)cc1 | -26.2%
CSC(SC)=C(C(C)=O)C(=O)c1ccc(C)cc1 | -16.0%
COc1ccc(C(CNC(=O)c2cc3ccccc3cc2O)N2CCOCC2)cc1 (stereo not drawn) | 10.4%
CCC(NC(=O)c1ccccc1NC(=O)c1ccccc1)C(=O)OC (stereo not drawn) | 9.9%
COc1ccccc1NC(=O)CSCc1cc(=O)c2c(C)cc(C)cc2[nH]1 | -5.8%
CC(=O)Nc1c(C)nn(-c2ccc([N+](=O)[O-])cc2)c1C | 3.7%
COc1ccc(C2CC(c3ccc([N+](=O)[O-])cc3)=NN2C(=O)c2ccccc2)cc1OC (stereo not drawn) | -19.5%
CCCN(CC(=O)Nc1ccccc1OC)C(=O)c1cc2ccccc2o1 | -5.3%
N#Cc1ccc(OCC(=O)OCC(=O)c2ccc[nH]2)cc1 | -9.1%
COc1cccc(C(=O)c2c[nH]c(C(=O)NCCCN3CCOCC3)c2)c1 | ?
CCc1nc2c(c(=O)[nH]1)C(CC)(CC)Cc1ccccc1-2 | -0.9%
O=C(CSc1ncnc2c1oc1ccccc12)N1CCN(c2ccccc2)CC1 | 12.4%
c1ccc(-n2cnc3ccccc32)cc1 | 0.5%
CCOc1cc(/C=N/n2cnnc2)ccc1O | 5.2%
COc1ccccc1C(=O)NCC(=O)n1nc(C)cc1C | 11.2%
O=C(NC(N1CCOCC1)C(Cl)(Cl)Cl)c1ccc(F)cc1 (stereo not drawn) | -10.3%
C=C1c2ccccc2O[C@H](C(=O)OCC)[C@@H]1CC(C)(C)c1ccccc1 | ?
O=C(NCCSCc1ccco1)Nc1ccccc1 | 4.8%

Not all compounds are listed; rates above refer to the full screens.
